Assay outcomes (PubChem)
D2 PAM: Beta-Arrestin HTS for Positive Allosteric Modulators of the Human D2 Dopamine Receptor: Potentiators; 0.23% of 360,000 active; AID 624464, 2012; D(2) dopamine receptor (Homo sapiens), P14416; potentiation, % (concentration not given with the values); DiscoveRx D2 beta-arrestin cells, luminescence, 90 min; 100% = 57 uM dopamine signal; active = potentiation of 50% or more; inconclusive = 30% to 50%; inactive = 30% or less;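 further: compound concentration not given in the record; tested on top of an EC20 dose of dopamine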
Target sequence (P14416 whole entry, looked up): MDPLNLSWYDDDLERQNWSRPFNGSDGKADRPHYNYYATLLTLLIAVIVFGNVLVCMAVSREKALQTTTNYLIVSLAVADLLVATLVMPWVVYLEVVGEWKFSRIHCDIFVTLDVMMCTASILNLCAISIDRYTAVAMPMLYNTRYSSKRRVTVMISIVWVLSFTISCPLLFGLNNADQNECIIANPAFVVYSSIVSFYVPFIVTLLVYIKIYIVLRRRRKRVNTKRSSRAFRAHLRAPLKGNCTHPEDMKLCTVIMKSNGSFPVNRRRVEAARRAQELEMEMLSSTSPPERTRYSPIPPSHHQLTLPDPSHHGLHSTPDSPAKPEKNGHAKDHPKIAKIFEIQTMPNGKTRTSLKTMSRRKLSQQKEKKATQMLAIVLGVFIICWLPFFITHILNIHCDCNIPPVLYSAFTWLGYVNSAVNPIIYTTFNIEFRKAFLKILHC
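PathHunter D2 cells, attached overnight at 37 deg C, received compound in DMSO plus dopamine at EC20 (50 nM final) for 90 min at 37 deg C. Beta-arrestin recruitment was read as luminescence after 1 h with detection reagent at ambient temperature.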
CtBP-E1A blk: qHTS Assay for Inhibitors of the CtBP/E1A Interaction. CtBP / adenovirus E1A interaction (AlphaScreen). AlphaScreen GST-E1A/His-CtBP binding, 1536-well; active compounds read low; control for the full effect not named in the record. activity change, % (test concentration not listed). 0.49% of 340,000 active; in the data active means activity change below about -65%; inconclusive means about -30% to -65%; inactive means above about -30%; further: on the % scale 0 is the no-effect control and ±100 the full control effect
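Homogeneous bead-based format: GST-tagged E1A captured on glutathione donor beads, His-tagged CtBP on nickel acceptor beads; compounds precede bead addition by 2 h at 37 °C.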
TRPML1 inh: qHTS for Inhibitors of the Human Mucolipin Transient Receptor Potential 1 (TRPML1). Mucolipin-1 (Homo sapiens), Q9GZU1. TRPML1-inducible cells, Ca2+ dye fluorescence, FDSS; active compounds read low; inhibition of EC80 agonist-evoked calcium signal. activity change, negative = inhibition, % (concentration not given with the values). 0.02% of 390,000 active; in the data active means activity change below about -50%; inconclusive means about -30% to -50%; inactive means above about -30%;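 further: stimulus is agonist 54-4 at its EC80 concentration; on the % scale 0 is the no-effect control and ±100 the full control effect; the text of the record puts the active cut at -80%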
Target sequence (Q9GZU1 whole entry, looked up): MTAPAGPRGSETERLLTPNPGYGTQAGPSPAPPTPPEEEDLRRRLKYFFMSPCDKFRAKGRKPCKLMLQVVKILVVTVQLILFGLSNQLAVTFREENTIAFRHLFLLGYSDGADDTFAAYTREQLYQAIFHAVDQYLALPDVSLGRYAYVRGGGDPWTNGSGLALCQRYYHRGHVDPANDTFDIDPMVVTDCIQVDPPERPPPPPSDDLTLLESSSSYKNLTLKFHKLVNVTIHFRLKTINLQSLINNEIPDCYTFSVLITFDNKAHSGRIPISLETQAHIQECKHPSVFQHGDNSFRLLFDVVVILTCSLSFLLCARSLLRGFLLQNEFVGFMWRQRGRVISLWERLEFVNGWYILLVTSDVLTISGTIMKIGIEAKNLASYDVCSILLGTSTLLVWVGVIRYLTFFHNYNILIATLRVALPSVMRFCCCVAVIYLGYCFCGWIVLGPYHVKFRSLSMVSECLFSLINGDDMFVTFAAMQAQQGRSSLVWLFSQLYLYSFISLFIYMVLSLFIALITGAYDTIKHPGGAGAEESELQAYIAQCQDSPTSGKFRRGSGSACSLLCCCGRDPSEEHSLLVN
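TRPML1-DL cells, Tet-induced overnight (~16 h, 37 °C) at 1,500 cells/well, were loaded with Ca8 no-wash dye plus quencher for 45-90 min at room temperature. Compounds were pinned during FDSS kinetic reading; agonist 54-4 at EC80 (4 uM final) then added.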
TRPV1 PAM: HTS Assay for Compounds that Act as Potentiators of the Vanilloid Receptor 1 | Transient receptor potential cation channel subfamily V member 1 (Homo sapiens), Q8NER1 | TRPV1-expressing cells, Fluo-8 calcium influx, capsaicin EC20 potentiation; host cell line not named in the record; control for the full effect not named in the record | potentiation, % at 8.33 µM | 0.02% of 320,000 active | AID 540277, 2011; active means potentiation above 80%; inconclusive means 30% to 80%; inactive means below 30%; further: 0% is about no effect
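Cells expressing TRPV1 were dye-loaded with Fluo-8 and read kinetically: 10 s baseline, 3 min after compound (agonist portion), then 2 min after EC20 capsaicin (allosteric enhancer portion). Calcium-bound dye fluorescence at 480/520 nm.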
TRPML1 agonist: qHTS for Agonists of the Human Mucolipin Transient Receptor Potential 1 (TRPML1); Mucolipin-1 (Homo sapiens), Q9GZU1; TRPML1-expressing cells, Ca2+ dye fluorescence, FDSS; host cell line not named in the record; reference of the full effect not given here; activation, % (no concentration beside the values); 0.12% of 410,000 active; AID 624414, 2012; in the data active = activation above about 50%; inconclusive = about 30% to 50%; inactive = below about 30%; further: 0% is about no effect; the text of the record puts the active cut at 80%
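In this qHTS format, compounds were pin-transferred onto Ca8-dye-loaded TRPML1-DL cells induced with Tet overnight, and intracellular Ca2+ fluorescence was recorded kinetically for 110 s after a 10 s baseline. A subsequent 4uM final 54-4 (EC80) addition followed by a second 110 s read served as the antagonist phase.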
Six1-Eya2 inh: qHTS Assay for Inhibitors of the Six1/Eya2 Interaction. Homeobox protein SIX1 (Homo sapiens) + Protein phosphatase EYA2 (Homo sapiens), …. AlphaScreen GST-Six1/His-Eya2 binding, biochemical; active compounds read low; control for the full effect not named in the record. activity change, % (test concentration not listed). 0.56% of 360,000 active; in the data active = activity change below about -65%; inconclusive = about -30% to -65%; inactive = above about -30%; further: on the % scale 0 is the no-effect control and ±100 the full control effect
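Homogeneous AlphaScreen proximity assay pairing GST-Six1 with His-tagged Eya2 (added as 5X mix: 250 nM and 500 nM) in 50 mM Tris pH 8.0, 300 mM NaCl, 1 mM TCEP. Glutathione donor and nickel acceptor beads; 1 h, 37 °C, dark.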
Active calls of the source: *; ? = inconclusive; nt = no result given.

The opening 6 compounds, ahead of the listing:
SMILES	D2 PAM	CtBP-E1A blk	TRPML1 inh	TRPV1 PAM	TRPML1 agonist	Six1-Eya2 inh
COc1cc2c(cc1OC)CN(C(=O)C1(c3ccccc3)CC1)CC2	1	-1	17	5	-0.4	-3
COC(=O)c1ccc(NC(=O)Cn2nnc3ccccc32)cc1	-12	3	5	-23	0.0	-12
Cn1ccnc1C(O)c1ccccc1 (stereo unspecified)	-5	0	5	8	-0.2	-8
COc1ccc(C2=NN(C(=O)c3ccncc3)C(c3ccccc3O)C2)cc1 (stereo unspecified)	4	-11	16	9	1.1	-3
CC(=O)c1c(C)[nH]c(C(=O)OCC(=O)NCCC2=CCCCC2)c1C	-16	-23	1	1	-0.2	3
Cc1ccc(NC(=O)CN2C(=O)S/C(=C\c3ccc(-c4cccc(C(=O)O)c4C)o3)C2=O)cc1C	-4	0	1	7	-0.3	-3

Results, from the first entry:
SMILES	D2 PAM	CtBP-E1A blk	TRPML1 inh	TRPV1 PAM	TRPML1 agonist	Six1-Eya2 inh
COc1cc2c(cc1OC)CN(C(=O)C1(c3ccccc3)CC1)CC2	1	-1	17	5	-0.4	-3
COC(=O)c1ccc(NC(=O)Cn2nnc3ccccc32)cc1	-12	3	5	-23	0.0	-12
Cn1ccnc1C(O)c1ccccc1 (stereo unspecified)	-5	0	5	8	-0.2	-8
COc1ccc(C2=NN(C(=O)c3ccncc3)C(c3ccccc3O)C2)cc1 (stereo unspecified)	4	-11	16	9	1.1	-3
CC(=O)c1c(C)[nH]c(C(=O)OCC(=O)NCCC2=CCCCC2)c1C	-16	-23	1	1	-0.2	3
Cc1ccc(NC(=O)CN2C(=O)S/C(=C\c3ccc(-c4cccc(C(=O)O)c4C)o3)C2=O)cc1C	-4	0	1	7	-0.3	-3
Cc1cc(C(=O)NCC2CCCCC2)ccc1[N+](=O)[O-]	-15	-7	8	-38	-0.6	-2
FC(F)(F)c1ccc(CN2CCN(Cc3ccco3)CC2)cc1	-6	nt	nt	12	nt	1
O=S(=O)(NCCOc1cccc2cccnc12)c1ccc(F)cc1	-5	7	8	3	0.1	7
O=C(COC(=O)c1c2c(nc3ccccc13)/C(=C\c1cccs1)CCC2)Nc1ccccc1	10	23	-11	2	-0.2	17
COC(=O)c1ccccc1NC(=S)N(Cc1ccc2c(c1)OCO2)Cc1cc2cccc(C)c2[nH]c1=O	-11	1	-1	9	-0.9	-5
O=C(N/N=C/c1c[nH]c2ccccc12)c1ccn[nH]1	-1	-3	10	-4	-0.3	-1
CC(C)C[C@@H](CN1CCC[C@@H]1CN1C(=S)NC[C@@H]1Cc1ccc(O)cc1)N1C[C@H](Cc2ccc(O)cc2)N(CC2CCCCC2)C1=S	-1	-14	-17	nt	-0.5	0
COCCNC(=O)CCCn1c(=O)c2ccccc2n(CC(=O)NCCC2=CCCCC2)c1=O	-11	-3	-2	1	-0.8	11
CC(/C=N/Nc1ccc2nncn2n1)=C\c1ccccc1	-7	-2	-5	-15	1.6	-1
COc1ccc(CNC(=O)CS(=O)CC(=O)O)cc1OC (stereo unspecified)	-4	4	-5	-11	0.3	8
O=C(CN1CCSCC1)N/N=C/c1ccccc1F	-5	-3	-21	8	0.5	0
N=C1C(c2ccccc2)=C(O)CN1c1ccc2c(c1)OCO2	1	7	10	-8	0.8	-2
Cc1nc2ccccc2nc1N1CCCCC1	-3	7	-8	-24	-0.5	16
CSc1ccc(/C=N/n2c(C)nnc2C)cc1	0	0	9	-2	1.1	-6
CCOC(=O)c1cnn(-c2c(Cc3ccccc3)c(C)nc3c(-c4ccccc4)c(C)nn23)c1N	-5	7	-19	?	1.1	-2
CCOc1cccc(/C=C/C(=O)O)c1	2	-1	1	-3	-0.6	5
CCC(C)[C@H](NC(=O)[C@@H]1Cc2ccccc2CN1)C(=O)Nc1ccc2c(c1)OCO2 (stereo partly specified)	-35	-6	-29	26	-0.2	0
O=C(COc1ccc([N+](=O)[O-])cc1)Nc1ccc2[nH]c(=O)[nH]c2c1	-25	1	0	24	-0.4	-5
Cc1ccc(C(=O)Nc2nnc(-c3ccncc3)s2)o1	13	4	-11	-1	-0.4	4
Cn1c(=O)[nH]c(=O)c2c1nc(N1CCOCC1)n2CCc1ccccc1	1	0	22	10	0.5	-4
Cc1c(NC(=O)c2ccc3c4c(cccc24)CC3)c(=O)n(-c2ccccc2)n1C	-9	11	2	4	-0.5	-1
COC(=O)c1ccc(N2CCN(C)CC2)c(NC(=O)COc2ccc(C)cc2)c1	-16	-5	8	-16	-0.4	5
CCn1c(CNC(=O)c2cccc(C)c2)nnc1SCC(=O)NC1CCCCC1C (stereo unspecified)	-7	-4	20	-8	-0.1	5
CCOc1ccccc1N(CC(=O)O)S(=O)(=O)c1ccc(C)cc1	19	3	1	?	0.2	5
CCC(C)(C)NC(=O)C(c1cccn1C)N(C(=O)Cn1nnc2ccccc21)c1ccc(F)cc1 (stereo unspecified)	-3	0	-3	-2	0.0	4
C[C@@H]1CN([C@H](C)CO)C(=O)c2cc(NC(=O)Nc3ccc(C(F)(F)F)cc3)ccc2O[C@H]1CN(C)S(=O)(=O)c1ccc(Cl)cc1	nt	-2	-10	nt	-0.7	-8
C[C@]12C(=O)N(c3ccc(Br)cc3)C(=O)N1[C@@H]1c3ccccc3OC[C@@H]1[C@H]2c1ccccc1	-10	-18	68	?	2.0	-2
Cc1ccc(OCCN2CCN(C)CC2)c([N+](=O)[O-])c1	-27	0	1	4	-0.2	22
Cc1ccc(Nc2nc(NCCCN3CCOCC3)nc(N)c2[N+](=O)[O-])cc1	-8	-15	-1	-6	1.5	-14
C[C@H]1C=C(C(=O)NCc2nc3ccccc3[nH]2)O[C@@H](OCCCCO)C1	-5	6	0	nt	-0.4	0
C=CCNS(=O)(=O)c1sccc1/C=N/O	0	2	-1	-5	-0.2	6
CCOC(=O)CNC(=O)COc1coc(CN2CCN(c3ccccc3F)CC2)cc1=O	-2	1	-14	8	0.7	-18
C#CCOCCOCCOCCNc1nc(N2CCN(C(=O)[C@H](CCCCN)n3cc(CN)nn3)CC2)nc(N2CCN(C(=O)[C@H](CCCCN)n3cc([C@@H](N)[C@H](C)CC)nn3)CC2)n1	-6	-4	-11	nt	-0.2	-1
CC(C)(C)c1ccc(C2/C(=C(\O)c3ccc4c(c3)OCCO4)C(=O)C(=O)N2CCCN2CCOCC2)cc1 (stereo unspecified)	-1	2	34	18	0.2	-2
CC(=O)c1ccc2c(c1)CCN2	-11	-8	-8	nt	0.9	10
C=CCOC(=O)Nc1ccc(Cl)cc1NC(=O)OCC=C	-11	2	-16	-12	2.4	4
Nc1c(C(=O)NCc2ccccc2)sc2nc3c(cc12)C(=O)CCC3	11	2	38	15	-1.3	-1
N#C/C(=C(/O)C(Cl)c1ccccc1)c1nc2ccccc2s1 (stereo unspecified)	-3	8	7	-4	0.3	-1
COc1cc(CNCCc2ccccc2F)ccc1OCc1ccc(Cl)nc1	-38	-3	24	8	0.5	2
Cc1ccc2oc(-c3ccc(C)c(NC(=S)NC(=O)c4cccs4)c3)nc2c1	-1	2	-1	4	0.2	2
CC(C)C(=O)N1CCN(CCN2C(=O)c3cccc4cccc(c34)C2=O)CC1	-2	-1	-23	-10	1.1	3
CCCS(=O)(=O)NC(=O)C1(C)CCCN(C(=O)c2ccc(OC)cc2)C1 (stereo unspecified)	-5	8	nt	nt	-0.3	10
COc1ccccc1NC(C)=[N+](C)CCNS(=O)(=O)c1ccc(Cl)cc1	-25	0	9	-17	-0.6	4
O=C(CC1OC(=O)c2ccccc21)Nc1cc(Cl)ccc1N1CCCC1 (stereo unspecified)	-6	3	20	-17	2.8	7
CCN(CC)C(=O)Cn1c(=O)n(Cc2ccccc2Cl)c2c1c(=O)n(C)c(=O)n2C	21	0	-9	nt	-0.3	4
COc1ccccc1NC(=O)c1cccc(NC(=O)c2ccco2)c1	-15	-7	1	-4	1.2	-19
COc1ccc(C(c2c(C)[nH][nH]c2=O)c2c(C)[nH][nH]c2=O)cc1Br	2	nt	nt	7	nt	-4
CCc1noc(C)c1C(=O)N(CCCOC)c1c(N)n(Cc2ccccc2)c(=O)[nH]c1=O	-21	-1	-13	-9	0.6	-1
CC(C)n1cc(CN2CCC(C(=O)Nc3ccc(Oc4ccccc4F)cc3)CC2)cn1	-33	0	2	-7	0.8	-1
CCOC(=O)c1nnn2c1nc(Nc1cccc(C(F)(F)F)c1)c1ccccc12	2	0	17	-3	0.3	13
O=C(Cc1ccccc1)NCCCNC(=O)Cc1ccccc1	-7	2	4	nt	0.4	6
COc1ccc(CCN2C(=O)CC(Cc3cccc(C)c3)C2=O)cc1OC (stereo unspecified)	2	4	-7	-1	0.9	8
Cc1nnc(NC(=O)C(C)Oc2ccc3c(C)cc(=O)oc3c2)s1 (stereo unspecified)	23	12	8	-7	0.0	0
CC(=O)Nc1c(Cl)cc2c(c1Cl)Cc1cc(N)ccc1-2	-6	-1	-9	nt	-0.3	-24
(list continues)
SMILES	D2 PAM	CtBP-E1A blk	TRPML1 inh	TRPV1 PAM	TRPML1 agonist	Six1-Eya2 inh
O=S1(=O)CC(N2CCCC2)CN1Cc1cn(Cc2ccc(F)cc2)nn1 (stereo unspecified)	nt	-5	nt	nt	-0.3	11
COc1ccc(OCC(O)Cn2c(Br)nc3c2c(=O)[nH]c(=O)n3C)cc1 (stereo unspecified)	4	1	-9	-11	-0.5	3
Cc1nnc(SCC(=O)OC2CC(C)CCC2C(C)C)[nH]c1=O (stereo unspecified)	-26	-9	50	-2	0.2	5
Cc1ccccc1Cn1cc(NC(=O)CCCn2nc([N+](=O)[O-])cc2C)cn1	-14	3	-12	-12	-0.4	-4
CC(C)N(C(=O)CN1C(=O)C(=O)c2ccccc21)c1ccccc1	-2	9	17	6	1.8	7
CSc1nc2nc(-c3ccccc3)cc(=O)n2[nH]1	-8	0	-4	22	-0.4	23
O=C(Nc1cccc(Cn2cccn2)c1)c1cc2c(s1)CCCC2	-8	-2	-3	-1	2.2	0
O=C1C=C(c2ccccc2C(F)(F)F)C[C@@H](c2ccc3c(c2)OCO3)C1	-9	-1	6	-13	1.1	-3
Cc1cc(=O)n2nc(N3CCC(C(=O)NCC(C)c4ccccc4)CC3)sc2n1 (stereo unspecified)	-5	-4	5	7	-0.8	-1
O=C(O)c1ccccc1P(=O)(c1ccccc1)c1ccccc1	-17	3	8	-3	-0.4	-4
Cc1ccc(C)c(Nc2ncccc2C(=O)NCc2cccs2)c1	-4	1	32	0	0.1	-3
Cc1ccc2nc3c(cc2c1)c(NC(=O)C(C)(C)C)nn3CC(C)C	-10	0	-7	?	-0.3	12
